# Screening data deposited in PubChem BioAssay by National Center for Advancing Translational Sciences (NCATS).
# Sfp inh: qHTS Assay for Inhibitors of Bacillus subtilis Sfp phosphopantetheinyl transferase (PPTase). 4'-phosphopantetheinyl transferase ffp (Bacillus subtilis), Q9F4F7. Biochemical Sfp PPTase activity, qHTS. Potency, µM, inactives show max response, negative = inhibition, actives largely listed as inhibitors. actives 3.5% (n = 310,000); active = well fitted inhibition curve with a large enough effect; inconclusive = small, poorly fitted or top-dose-only effect, or another doubt; inactive = no such curve, though single readings can be large or run the other way;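 note: the enzyme is Sfp with the accession as filed and its product quenches rhodamine fluorescence; potency is the fitted concentration of half-maximal effect; 0% = enzyme reaction without inhibitor and -100% = no enzyme wells; top concentration of the series not given in the record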
#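 With Hepes-Na pH 7.6 buffer containing 10 mM MgCl2, Sfp (15 nM) modified BHQ-2-YbbR (12.5 uM) using rhodamine-CoA (5 uM). Two reads 30 minutes apart at 525/598 nm yielded each well's rate.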
# Menin-MLL FL inh: qHTS Assay for Inhibitors Targeting the Menin-MLL Interaction in MLL Related Leukemias: Competition With Fluorescein Labeled MLL-derived Peptide. FP activity change, % at 61.4 µM. AID 1766, 2009. 290,000 tested, under 10 active. Fluorescence polarization, fluorescein-MLL peptide displacement from menin; inconclusive = falling polarisation curve, or a change in total fluorescence; inactive = total fluorescence flat and polarisation flat or rising; no compound was filed as active; the % refers to the polarisation; negative = inhibition;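 note: % of control where 0% means no effect; inhibitors lower the polarisation; unlabelled MLL peptide was the positive control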
# TRPV1 PAM: HTS Assay for Compounds that Act as Potentiators of the Vanilloid Receptor 1 | TRPV1-expressing cells, Fluo-8 calcium influx, capsaicin EC20 potentiation; host cell line not named in the record; control for the full effect not named in the record | Transient receptor potential cation channel subfamily V member 1 (Homo sapiens), Q8NER1 | potentiation, % at 8.33 µM | actives 0.02% (n = 320,000); active means potentiation above 80%; inconclusive means 30% to 80%; inactive means below 30%; note: 0% is about no effect
#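 TRPV1-expressing cells were cultured overnight at 35.5C and loaded with Fluo-8 calcium dye for 40 to 90 min at room temperature. After a 10 s baseline, compound was added and calcium influx was read kinetically for 3 min (ex 480/em 520 nm).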
# gsp antag: qHTS for Antagonists of gsp, the Etiologic Mutation Responsible for Fibrous Dysplasia/McCune-Albright Syndrome: qHTS | gsp-mutant cells, cAMP HTRF, 30 min; control for the full effect not named in the record | Potency, µM (highest dose often 76.9 µM), without a hit: at the top dose activity change, negative = inhibition, actives largely listed as inhibitors | actives 0.4% (n = 340,000) | AID 624288, 2012; active = falling curve of any shape with a large fitted effect; inconclusive = falling curve, mostly with a smaller effect; inactive = flat or rising curve; cell line not stated here;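 note: intracellular cAMP measured with PDE inhibitor Ro 20-1724 present during compound exposure; potency is the fitted concentration of half-maximal effect; % is set by controls: 0 for no effect and ±100 for the full control effect; nearly all actives have a fitted effect of over 65% in size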
#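 Cells, 2000/well, grown 16–24 h in DMEM 10% FBS with 0.5 mg/ml G418, then compounds plus […] (300 uM addition stock), 30 min at 37C. cAMP read by HTRF (cAMP-d2 and anti-cAMP antibody-K in lysis buffer) after 30 min RT.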
# D2 potentiator: Beta-Arrestin HTS for Positive Allosteric Modulators of the Human D2 Dopamine Receptor: Potentiators. D(2) dopamine receptor (Homo sapiens), P14416. DiscoveRx D2 beta-arrestin cells, luminescence, 90 min; 100% = 57 uM dopamine signal. potentiation, % (test concentration not listed). actives 0.23% (n = 360,000); active = potentiation of 50% or more; inconclusive = 30% to 50%; inactive = 30% or less;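 note: compound concentration not given in the record; tested on top of an EC20 dose of dopamine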
# Target sequence (P14416 whole entry, looked up): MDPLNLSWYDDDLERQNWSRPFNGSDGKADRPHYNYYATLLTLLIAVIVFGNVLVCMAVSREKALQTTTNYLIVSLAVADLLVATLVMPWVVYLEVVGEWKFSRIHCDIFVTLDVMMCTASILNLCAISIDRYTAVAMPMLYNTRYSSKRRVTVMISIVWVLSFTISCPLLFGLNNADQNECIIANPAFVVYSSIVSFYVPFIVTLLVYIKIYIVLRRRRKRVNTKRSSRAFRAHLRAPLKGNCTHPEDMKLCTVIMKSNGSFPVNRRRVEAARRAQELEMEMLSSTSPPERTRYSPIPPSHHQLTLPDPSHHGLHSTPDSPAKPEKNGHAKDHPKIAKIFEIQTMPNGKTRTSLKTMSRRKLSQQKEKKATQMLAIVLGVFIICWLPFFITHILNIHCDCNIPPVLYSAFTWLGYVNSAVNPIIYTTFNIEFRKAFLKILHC
#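 D2 cells co-treated with compound plus 50 nM dopamine (EC20) for 90 min at 37 deg C to detect potentiation. Beta-arrestin recruitment was read as enzyme-fragment luminescence after 1 h at ambient temperature. Full response was set by 57 uM dopamine.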
# gsp ag: qHTS for Agonist of gsp, the Etiologic Mutation Responsible for Fibrous Dysplasia/McCune-Albright Syndrome: qHTS; gsp mutant cells, cAMP HTRF, 30 min; control for the full effect not named in the record; actives 0.13% (n = 340,000); Potency, µM (doses to about 76.9 µM), for the others: at the highest dose activation (cAMP increase), hits mostly activators; AID 624287, 2012; active = well fitted activation curve with a large enough effect; inconclusive = small, poorly fitted or top-dose-only effect, or another doubt; inactive = no such curve, though single readings can be large or run the other way; cell line not stated here;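 note: phosphodiesterase inhibitor Ro 20-1724 added with compounds to block cAMP breakdown; potency is the fitted concentration of half-maximal effect; nearly all actives have a fitted effect of over 60% in size; about a fifth of the inactives were tested at one dose only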
#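 Cells stably selected in G418 were plated at 2000/well, grown 16-24 hr, then given compounds in DMSO with the PDE inhibitor […] (300 uM solution added) for 30 min at 37C; cAMP was read by HTRF.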
# ClpP mod: qHTS Assay for Activators of ClpP; ATP-dependent Clp protease proteolytic subunit (Bacillus subtilis (strain 168)), P80244; purified B. subtilis ClpP, FRET peptide cleavage, 20 min; Potency, µM (doses to about 57.5 µM), for the others: at the top dose activity change, negative = active; actives 1.9% (n = 340,000); AID 651965, 2013; active = well fitted falling curve with a large enough effect; inconclusive = small, poorly fitted or top-dose-only effect; inactive = no such curve, though single readings can be large or run the other way; note: potency is the fitted concentration of half-maximal effect; the source files actives as falling curves though it sought activators and does not explain the sign; nearly all actives have a fitted effect of over 65% in size; many hits overshoot -100%
# Target sequence (P80244 whole entry, looked up): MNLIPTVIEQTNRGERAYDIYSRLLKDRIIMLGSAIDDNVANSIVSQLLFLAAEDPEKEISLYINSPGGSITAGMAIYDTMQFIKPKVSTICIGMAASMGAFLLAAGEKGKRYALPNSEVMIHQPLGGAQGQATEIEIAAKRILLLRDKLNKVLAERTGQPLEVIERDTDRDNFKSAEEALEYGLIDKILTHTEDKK
#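 Buffer: 100 mM Tris/HCl pH8, 100 mM KCl, 0.05% low protease BSA, 2.5% glycerol, 0.01% Tween-20. ClpP 10 microg/mL final; 20 min RT; delta FRET normalized to ADEP and DMSO controls.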
# The depositor's hits bear a star; ? = inconclusive; · = no result given; & = joins results of further samples; [ ] = remark or other dose.
SMILES,Sfp inh,Menin-MLL FL inh,TRPV1 PAM,gsp antag,D2 potentiator,gsp ag,ClpP mod
CC(C)CCN1CCN(Cc2cc3ccccc3[nH]2)CC1CCO (stereo not given),13%,0.7,3,2%,-34,-20%,-5.3%
O=S(=O)(Nc1ccc(-n2cnnn2)cc1)c1ccccc1F,·,·,4,3%,6,-14%,-3.2%
CCCCn1c(N)c(N(CCOC)C(=O)c2cc(-c3ccc(OC)c(OC)c3)nc3ccccc23)c(=O)[nH]c1=O,·,·,3,1%,-4,7%,-8.9%
CCN1C(=O)[C@@H]2[C@@H](c3ccc(-c4ccc(C(C)=O)cc4)cc3)N3CCC[C@@]3(C(=O)OC)[C@@H]2C1=O,·,·,29,-8%,-9,·,-0.7%
COc1cc(/C=C/C(=O)O)cc(OC)c1OC,9%&13%,-5.0&5.3,3,-6%,-10,·,4.3%
COc1ccc(C2CC(=O)c3c(C)nc(N4CCN(c5ccccc5)CC4)nc3C2)cc1 (stereo not given),-4%,2.5,-1,20%,-8,-2%,-1.0%
CC(C)[C@@H](CO)NC(=O)c1ccc2c3n(nc2c1)-c1ccccc1CO3,-3%,1.3,-2,6%,-31,·,4.4%
CCN(CC(=O)NC(C)(C)C)C(=O)c1ccc2c(c1)S(=O)(=O)c1ccccc1C2=O,24%,-0.6,9,11%,-7,-21%,-1.2%
Cc1cc(NC(=O)c2ccc([N+](=O)[O-])cc2)n(CCC#N)n1,21%,-1.0,?,-11%,18,-11%[15.4 µM],·
COCc1cc(C)nc(SC)c1C#N,18%,-3.8,-3,4%,1,7%,·
COc1cc([C@H](Cc2ccccc2)NC(C)=O)oc(=O)c1,14%,?,-1,2%,10,·,-0.5%
COc1ccc(S(=O)(=O)N2CCOC23CCN(C(=O)c2ccccc2OC)CC3)cc1,·,·,3,2%,-1,5%[15.4 µM],·
Cc1ccc(N2C(=O)c3ccc(C(=O)NCCN4CCOCC4)cc3C2=O)cc1,20%,1.6,13,8%,1,4%,-0.4%
COc1ccc(/C=N/NC(=O)c2sccc2OCc2ccc(F)cc2)cc1OC,0%,-3.5,-8,-14%,17,-4%,134%
N#CC1=C(N)Oc2c(oc(CO)cc2=O)C1c1ccccc1[N+](=O)[O-] (stereo not given),0%,-22,-3,-14%,-5,4%[15.4 µM],·
Cc1ccc(NC(=O)c2ccc3c(c2)N(CC(=O)NC(C)C)C(=O)C(C)(C)O3)cc1,3%,-3.9,-3,10%,0,-8%[15.4 µM],·
CC(C)(C)OC(=O)NCCCC[C@H](NC(=O)c1nc[nH]c1C(=O)N[C@@H](CCCCNC(=O)OC(C)(C)C)C(=O)OC(C)(C)C)C(=O)OC(C)(C)C,16%,0.0,?,1%,7,·,0.6%
C=C(C)Cn1c(CCCNC(=O)CC)nc2ccccc21,-4%,8.3,?,3%,-6,-66%[inhibitor],1.6%
CC(O)CNc1nc2c(c(=O)n(Cc3ccc(Br)cc3)c(=O)n2C)n1C (stereo not given),8%,1.1,?,7%,52*,8%,-0.1%
CCC(Sc1nc2ccccc2c(=O)[nH]1)C(=O)Nc1ccc(C(C)=O)cc1 (stereo not given),?,8.6,-5,-13%,-1,13%[15.4 µM],·

# 2 entries picked at random from the list so far:
SMILES,Sfp inh,Menin-MLL FL inh,TRPV1 PAM,gsp antag,D2 potentiator,gsp ag,ClpP mod
COCc1cc(C)nc(SC)c1C#N,18%,-3.8,-3,4%,1,7%,·
N#CC1=C(N)Oc2c(oc(CO)cc2=O)C1c1ccccc1[N+](=O)[O-] (stereo not given),0%,-22,-3,-14%,-5,4%[15.4 µM],·

# New compounds follow
SMILES,Sfp inh,Menin-MLL FL inh,TRPV1 PAM,gsp antag,D2 potentiator,gsp ag,ClpP mod
COc1ccc(-n2c(Cc3cccn3C)nnc2SCC(=O)Nc2cccc(OC)c2)cc1,-12%,6.0,-2,-12%,4,38%,-0.5%
CC(C)NC(=O)c1cccc(Br)c1,7%,1.1,-11,2%,-3,-32%[inhibitor],-1.9%
COc1ccc(OC)c(NC(=O)c2c(NC(=O)c3ccco3)sc3c2CCC3)c1,-1%,3.2,-3,·,·,·,·
COc1cccc(OC)c1C(=O)Nc1ccc(Cc2ccncc2)cc1,6%,-0.4,?,-27%,-6,10%[15.4 µM],-0.1%
O=C(CCNC(=O)c1ccc(Cl)cc1)NCc1cccc(C(F)(F)F)c1,·,·,-21,8%,-3,-22%[15.4 µM],·
Cc1cc(C)nc(NS(=O)(=O)c2ccc(NC(=O)CN3C(=O)S/C(=C\c4ccccc4)C3=O)cc2)n1,3%,8.3,6,-32%,-5,-5%[15.4 µM],-1.4%
O=C(Nc1ccc(F)cc1)c1cccc(N2C(=O)C3C4C=CC(C4)C3C2=O)c1 (stereo not given),17%,·,-19,-1%,5,1%,0.5%
COc1ccc(-c2ccccc2C2=CC(=O)CC(C)(C)C2=O)cc1,·,·,·,·,1,0%,1.5%
Cc1ccccc1-c1cn(-c2ccccc2)c(=S)[nH]1,?,5.0,-1,-1%,-8,6%[15.4 µM],·
Cc1[nH]c2ccccc2c1/C=N/Nc1ccccc1[N+](=O)[O-],-7%,-3.3,-7,-7%,-7,-1%[15.4 µM],-7.9%
Cc1ccc(C(=O)Nc2nc3ccccc3s2)s1,12%,0.1,-1,2%,-15,?,-4.4%
Cc1nnc(SCC(=O)N(Cc2ccccc2)C(C)(C)C)[nH]c1=O,19%,1.1,8,-18%,0,-38%[inhibitor],·
O=C(CSc1ncn[nH]1)NCc1ccc(Cl)cc1,0%,-1.0,19,3%,-4,-4%[15.4 µM],·
Cc1cc(C)n(-c2nc(C(=O)O)cs2)n1,10%,-4.4,5,-5%,2,-4%[15.4 µM],·
C=CCOC(=O)C1C(=O)CC(C)(O)C(C(=O)OCC=C)C1c1ccc(N(C)C)cc1 (stereo not given),19%,2.1,-18,-7%,-15,-1%,-1.6%
COc1ccccc1/C=C/C(=O)c1ccccc1,-4%,-5.7,-5,-8%,-15,16%,-3.5%
COc1ccccc1NC(=O)/C=C/C(=O)O,13%,1.2,-5,-9%,-4,0%,1.6%
CC(NC(=O)CCCOc1ccc(Cl)cc1)c1ccccc1 (stereo not given),13%,0.0,-7,2%,-29,-17%,2.4%
CN(C)c1ccc(C(c2nnnn2CCOC(=O)Nc2ccc(Cl)cc2)N2CCOCC2)cc1 (stereo not given),-8%,?,5,1%,-14,3%,-15%
CN(c1ccccc1)S(=O)(=O)c1ccc(C(=O)NCc2ccccc2F)cc1,·,·,-10,?,-7,-42%[inhibitor],-2.1%
Cc1ccc2c(c1)[C@@H]1[C@H](CO2)[C@H](c2ccccc2)[C@]2(C)C(=O)N[C@H](C)C(=O)N12,·,·,·,-4%,-3,-9%,-8.1%
Cc1ccc(Sc2ncccc2COC(=O)Nc2c(C)cccc2C)cc1,13%,-1.7,19,-16%,-13,16%,-5.0%
ClCc1nnc(-c2cc3c(s2)CCCC3)o1,-15%,1.9,-18,0%,-3,-43%,-9.6%
Cc1ccc(NC(=O)/C=C/c2ccc([N+](=O)[O-])s2)cc1,7%,?,-5,7%,24,4%,-2.8%
O=C(NCC1CCCO1)c1c(O)c2ccccc2[nH]c1=O (stereo not given),-2%,0.8,3,9%,5,0%,-5.8%
O=C(c1nc2ccccn2c1CN1CCC(Cc2ccccc2)CC1)N1CCCC1,3%,2.7,-5,-3%,-13,-5%[15.4 µM],·
CC(C)NC(=O)c1ccc2c(c1)N(CC(=O)N1CCCCC1)C(=O)C(C)(C)O2,9%,-4.0,2,11%,-2,-42%[15.4 µM],·
CN1CCN(CCCCOc2ccc(Br)cc2)CC1,-33%,-0.5,-6,16%,-6,8%,0.6%
COc1ccc(C(=O)NC(=S)NNC(=O)c2c(-c3ccccc3)noc2C)cc1OC,27%,-2.6,-4,-22%,-9,1%,·
COc1cc(/C=C2/SC(=Nc3ccc(O)cc3)NC2=O)ccc1O,-12%,?,-16,-7%,-9,-4%,0.4%
CCOc1cc(/C=N/NC(=O)c2ccc(CN3CCOCC3)cc2)ccc1OC,10%,0.3,-1,6%,2,-4%[15.4 µM],·
Cc1ccc(C(=O)NC(=S)Nc2ccc(NC(=O)c3cccc(Cl)c3)cc2)cc1,1%,1.0,23,14%,-10,0%,0.6%
COc1ccc2c3c(c(=O)oc2c1OCC(=O)O)CCCC3,10%,3.3,-8,11%,-18,1%,20µM*
COCCCC1CCN(C(=O)C2CCC(=O)N(CCCc3ccccc3)C2)CC1 (stereo not given),·,·,·,·,-12,2%,0.2%
CC(=O)N1CCN(c2nc(C)nc3sc4c(c23)CCC(C)C4)CC1 (stereo not given),4%,5.8,-11,-4%,-6,23%,3.2%
O=C(CSc1n[nH]c(=O)n1C1CC1)c1c[nH]c2ccccc12,·,·,-1,12%,-2,-15%,0.2%
CC(C)(CNC(=O)CC1C(=O)NCCN1Cc1cccc(F)c1)N1CCOCC1 (stereo not given),1%,·,15,10%,-5,-21%,-4.6%
Cc1noc(C)c1C(=O)Nc1ccc(C#N)cc1,15%,·,-5,-3%,3,?,0.1%
COC(=O)c1ccc(N2C(=O)C3CC=CC(C)C3C2=O)cc1 (stereo not given),12%,2.1,-9,·,-3,12%[15.4 µM],·
Cn1c(=O)c2ncn(CC(=O)N/N=C/C=C/c3ccccc3)c2n(C)c1=O,-2%,?,9,-2%,-6,15%[15.4 µM],·
Cc1ccc(N=CC2=C(O)CC(c3cccc(Cl)c3)CC2=O)cc1 (stereo not given),13%,-1.7,6,-2%,7,10%,338%
CCOc1ccc(S(=O)(=O)NNC(=S)Nc2ccc(Br)cc2)cc1,18%,5.5,-8,-6%,-8,-11%,-2.3%

# Outcome played no part in choosing rows; overall some 5.1% were active at least once.
